ClpP mod: qHTS Assay for Activators of ClpP. ATP-dependent Clp protease proteolytic subunit (Bacillus subtilis (strain 168)), P80244. 340,000 tested, 1.9% active. AID 651965, 2013. purified B. subtilis ClpP, FRET peptide cleavage, 20 min. Potency, µM (series often up to 57.5 µM), without a hit: at the highest dose activity change, negative = active; active = well fitted falling curve with a large enough effect; inconclusive = small, poorly fitted or top-dose-only effect; inactive = no such curve, though single readings can be large or run the other way; also: potency is read from the fitted curve at half-maximal effect; the source files actives as falling curves though it sought activators and does not explain the sign; nearly all actives have a fitted effect of over 65% in size; many hits overshoot -100%
Target sequence (P80244 whole entry, looked up): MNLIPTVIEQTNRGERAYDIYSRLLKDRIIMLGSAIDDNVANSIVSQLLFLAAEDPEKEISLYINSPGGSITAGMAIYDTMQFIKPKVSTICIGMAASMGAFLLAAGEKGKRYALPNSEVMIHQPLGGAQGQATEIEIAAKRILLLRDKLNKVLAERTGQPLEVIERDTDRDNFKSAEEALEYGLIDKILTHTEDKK
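FRET quenching reversal measured ClpP activation: 10 microg/mL B. subtilis ClpP at pH 8 with the FRET-FV decapeptide, read at 430 nm after 320 nm excitation. The 20-min minus 0-min signal was scaled between DMSO/no-enzyme wells and ADEP (5.8 microM final).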
Sfp inh: Sfp phosphopantetheinyl transferase inhibition | Biochemical Sfp PPTase activity, qHTS | 310,000 tested, 3.5% active | Potency, µM, inactives show max response, negative = inhibition, most hits filed as inhibitors | AID 1490 | Q9F4F7; active = well fitted inhibition curve with a large enough effect; inconclusive = small, poorly fitted or top-dose-only effect, or another doubt; inactive = no such curve, though single readings can be large or run the other way;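 also: the enzyme is Sfp with the accession as filed and its product quenches rhodamine fluorescence; potency is read from the fitted curve at half-maximal effect; 0% = enzyme reaction without inhibitor and -100% = no enzyme wells; top concentration of the series not given in the record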
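Buffer: 50 mM Hepes-Na pH 7.6, 10 mM MgCl2, 0.01% Nonidet P-40, 0.01% BSA. Enzyme 15 nM, pre-exposed to compound 15 min; substrates then added and fluorescence change tracked over 30 min.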
CtBP-E1A blk: blocks the CtBP interaction with E1A | AlphaScreen GST-E1A/His-CtBP binding, 1536-well; stronger effect = lower value; control for the full effect not named in the record | activity change, % (concentration not given with the values) | 340,000 tested, 0.49% active; in the data active means activity change below about -65%; inconclusive means about -30% to -65%; inactive means above about -30%; also: % is scaled to controls: 0 for no effect and ±100 for the full control effect
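AlphaScreen with 125 nM GST-E1A and 125 nM His-CtBP (5X stocks) in Tris pH 8.0, 300 mM NaCl, BSA, Tween 20, TCEP. Compounds preincubated 2 h at 37 deg C, then glutathione donor/nickel acceptor beads added for 1 h at 37 deg C in dark.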
gsp ag: gsp mutant agonism | Potency, µM (highest dose often 76.9 µM), for inactives: at the top dose activation (cAMP increase), usual class: activators | 340,000 tested, 0.13% active | gsp mutant cells, cAMP HTRF, 30 min; control for the full effect not named in the record | AID 624287; active = well fitted activation curve with a large enough effect; inconclusive = small, poorly fitted or top-dose-only effect, or another doubt; inactive = no such curve, though single readings can be large or run the other way; cell line not stated here;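 also: phosphodiesterase inhibitor Ro 20-1724 added with compounds to block cAMP breakdown; potency is read from the fitted curve at half-maximal effect; nearly all actives have a fitted effect of over 60% in size; about a fifth of the inactives were tested at one dose only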
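Cells in DMEM/10% FBS with G418 were pretreated with compounds in DMSO plus […] (300 uM stock) for 30 min at 37C. cAMP was measured by HTRF (cAMP-d2 plus anti-cAMP antibody-K) after 30 min at room temperature.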
TRPV1 potentiator: potentiators of human vanilloid receptor 1 (TRPV1); Q8NER1; TRPV1-expressing cells, Fluo-8 calcium influx, capsaicin EC20 potentiation; host cell line not named in the record; control for the full effect not named in the record; potentiation, % at 8.33 µM; 320,000 tested, 0.02% active; active means potentiation above 80%; inconclusive means 30% to 80%; inactive means below 30%; also: 0% is about no effect
Target sequence (Q8NER1 whole entry, looked up): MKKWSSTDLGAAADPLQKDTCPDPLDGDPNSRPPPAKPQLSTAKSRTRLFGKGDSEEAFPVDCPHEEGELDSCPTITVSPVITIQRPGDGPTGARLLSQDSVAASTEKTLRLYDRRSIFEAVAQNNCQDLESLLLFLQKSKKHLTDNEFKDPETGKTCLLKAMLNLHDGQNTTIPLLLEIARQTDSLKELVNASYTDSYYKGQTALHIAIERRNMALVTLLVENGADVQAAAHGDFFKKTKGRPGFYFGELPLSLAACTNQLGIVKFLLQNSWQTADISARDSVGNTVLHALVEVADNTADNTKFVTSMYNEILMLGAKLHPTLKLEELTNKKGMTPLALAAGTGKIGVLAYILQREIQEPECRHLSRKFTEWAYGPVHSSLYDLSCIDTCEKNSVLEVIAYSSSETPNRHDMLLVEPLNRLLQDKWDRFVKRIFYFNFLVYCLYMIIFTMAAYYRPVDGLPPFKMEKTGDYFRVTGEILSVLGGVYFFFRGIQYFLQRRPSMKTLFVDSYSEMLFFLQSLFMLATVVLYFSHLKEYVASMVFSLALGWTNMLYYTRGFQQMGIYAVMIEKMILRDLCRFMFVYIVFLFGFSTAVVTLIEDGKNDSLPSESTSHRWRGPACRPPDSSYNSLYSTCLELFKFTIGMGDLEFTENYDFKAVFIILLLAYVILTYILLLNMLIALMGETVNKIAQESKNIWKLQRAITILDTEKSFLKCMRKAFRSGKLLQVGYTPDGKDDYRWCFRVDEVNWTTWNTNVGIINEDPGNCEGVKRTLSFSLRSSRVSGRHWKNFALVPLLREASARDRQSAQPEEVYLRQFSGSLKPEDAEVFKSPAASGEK
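Cells expressing TRPV1 were dye-loaded with Fluo-8 and read kinetically: 10 s baseline, 3 min after compound (agonist portion), then 2 min after EC20 capsaicin (allosteric enhancer portion). Calcium-bound dye fluorescence at 480/520 nm.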
gsp antag: gsp mutant antagonism. Potency, µM (top dose mostly 76.9 µM), for the others: at the highest dose activity change, negative = inhibition, actives largely listed as inhibitors. 340,000 tested, 0.4% active. gsp-mutant cells, cAMP HTRF, 30 min; control for the full effect not named in the record; active = falling curve of any shape with a large fitted effect; inconclusive = falling curve, mostly with a smaller effect; inactive = flat or rising curve; cell line not stated here;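 also: intracellular cAMP measured with PDE inhibitor Ro 20-1724 present during compound exposure; potency is read from the fitted curve at half-maximal effect; % is scaled to controls: 0 for no effect and ±100 for the full control effect; nearly all actives have a fitted effect of over 65% in size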
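Measurement of cellular cAMP by homogeneous time-resolved fluorescence following a 30 min compound exposure at 37C. The PDE inhibitor […] was present throughout; the assay buffer was DPBS with 0.05% BSA and 0.005% Tween 20.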
Menin MLL FP FL: menin-MLL binding inhibition, fluorescein peptide. AID 1766. Fluorescence polarization, fluorescein-MLL peptide displacement from menin. 290,000 tested, under 10 active. FP activity change, % at 61.4 µM; inconclusive = falling polarisation curve, or a change in total fluorescence; inactive = total fluorescence flat and polarisation flat or rising; no compound was filed as active; the % refers to the polarisation; negative = inhibition;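 also: % of control where 0% means no effect; inhibitors lower the polarisation; unlabelled MLL peptide was the positive control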
Numbers without * were called inactive; u = inconclusive; x = not tested or not shown; & = joins results of further samples; [ ] = remark or other dose. Compounds were not picked by outcome; overall some 5.3% were active at least once.

compound,ClpP mod,Sfp inh,CtBP-E1A blk,gsp ag,TRPV1 potentiator,gsp antag,Menin MLL FP FL
CC(C)(C)C(=O)Cn1nnc(-c2ccc(C(F)(F)F)cc2)n1,-0.4%,25%,x,2%,-22,16%,2.9
Cn1cc(/C=C2\SC(=S)N(NC(=O)c3ccccc3)C2=O)c2ccccc21,0.4%,8%,-21,57%[15.4 µM],5,-9%,u
Cc1cc2cc(CCNC(=O)c3c(-c4ccccc4Cl)noc3C)c(=O)[nH]c2cc1C,x,9%,x,x,5,x,2.4
COC(=O)C1=C(C)N(Cc2ccc3c(c2)OCO3)C(=O)C1,x,4%,-18,-1%[15.4 µM],4,x,-2.1
Cc1cccc(NC(=O)C2C3CCCCC32)c1 (configuration not stated),-3.0%,-3%,-2,-30%[inhibitor],-14,-2%,5.3
Cc1cccc(NS(=O)(=O)c2ccc(C(=O)NCC(C)(C)N3CCOCC3)cc2)c1C,0.2%,-2%,0,-1%[15.4 µM],11,-9%,x
Cc1ccc(C2=NNC(c3ccc(Cl)cc3)=Nc3ccccc32)o1,1.6%,25%,-26,u,-12,u,1.1
Cc1ccc(-c2nn(-c3ccccc3)cc2/C=C/C(=O)OCC(=O)NC2CC2)o1,3.6%,-40%,0,26%,4,50µM*,-0.6
C[C@@H]1CN(S(=O)(=O)C(C)(C)C)[C@@H](CCO)/C1=C\c1ccccc1,1.8%,x,0,x,x,5%,x
CC1Cc2ccccc2N1C(=O)c1ccc(F)c(S(=O)(=O)N2CCOCC2)c1 (configuration not stated),28µM*,x,u,23%[15.4 µM],x,-15%,x
CC(C)c1ccc(C(O)c2cnc(C(C)C)n2C)cc1 (configuration not stated),0.3%,16%,-1,-17%,-10,-1%,-0.9
Cc1ccc(/C=C2\C(=N)N3N=C(CC(=O)N4CCCCC4)SC3=NC2=O)cc1,-2.0%,15%,-14,36%,-1,14%,6.3
CN(CCC#N)C(=S)Nc1ccc(Oc2ccccc2)cc1,-1.6%,8%,x,-27%,-17,-4%,4.2
O=c1c(N2CCOCC2)nsn1Cc1ccccc1,-0.3%,13%,2,-33%[inhibitor],-11,18%,0.2
O=S(=O)(Nc1cccc2[nH]ncc12)c1cccs1,x,9%,-1,-1%[15.4 µM],5,14%,1.7
Clc1ccc(-c2csc(-c3cccnc3)n2)s1,-12%,-13%,x,7%,5,-13%,1.6
O=C(NCCOc1ccccc1)c1cncc(Br)c1,2.0%,22%,-1,9%,12,2%,-0.6
O=C1C2C3C=CC(CC3)C2C(=O)N1/N=C/c1ccco1 (configuration not stated),x,13%,16,-11%[15.4 µM],2,20%,-6.9
O=C1CC(N2CCN(c3ncccn3)CC2)C(=O)N1CCc1ccccc1 (configuration not stated),-4.8%,8%,x,-276%[inhibitor],8,8%,1.9
C[C@@H]1CN([C@H](C)CO)S(=O)(=O)c2ccc(C#CC3CCCCC3)cc2O[C@H]1CN(C)C(=O)Cc1ccncc1,-0.5%,x,2,-2%,x,x,x
COc1ccc(S(=O)(=O)N2CCOCC2)cc1NC(=O)c1ccc(-n2nc(C)cc2C)cc1,x,8%,-23,-16%[15.4 µM],9,-7%,-2.3
COc1ccc([C@H]2CC(=O)C=C(/C=C/c3ccccc3)C2)cc1,-0.5%,x,0,-1%,-11,-13%,x
COc1ccc(C(=O)NCc2ccc3c(c2)OCO3)cc1,0.7%,9%,4,-8%[15.4 µM],-9,10%,-3.1
COc1cccc(NC(=O)CN(C)C(=O)Cn2c(=O)oc3ccccc32)c1,-2.5%,x,-21,-7%,8,9%,x
O=C(Nc1ccc(Cl)cc1)N1CCOCC1,-1.1%,0%,6,4%[15.4 µM],-11,-4%,-1.2
CCc1nnc(NC(=O)C2(C)COC(c3ccccc3)OC2)s1 (configuration not stated),-1.1%,-4%,-10,8%[15.4 µM],u,-3%,-4.9
O=C(CCC(=O)Nc1ccc(F)cc1)N/N=C/c1ccncc1,x,45µM*,-15,-8%[15.4 µM],-9,11%,1.1
COc1ccc(-c2nc3c(s2)CCc2onc(-c4ccc(Br)cc4)c2-3)cc1,-8.9%,x,x,9%,x,2%,x
Cc1cccc(C)c1NC(=O)C(C)NCc1cccs1 (configuration not stated),0.9%,x,0,-67%[inhibitor],x,x,x
Cc1ccc(OCC(=O)N(Cc2ccco2)C2CCS(=O)(=O)C2)cc1 (configuration not stated),0.7%&-0.9%,3%,2,21%,10,12%,-0.7
Cc1ccc(NS(=O)(=O)c2cccc(C(=O)NCC3(N(C)C)CCCCC3)c2)cc1,1.9%,-17%,1,-58%[inhibitor],2,u,0.8
CCCNC(=O)Cn1c(=O)/c(=C\c2ccc(-c3cccc([N+](=O)[O-])c3)o2)s/c1=C\C(=O)C(C)(C)C,0.9%,-29%,1,-9%[15.4 µM],19,2%,-3.0
CCN(CC)CCN(C(=O)c1ccc(S(=O)(=O)N2CCCC2)cc1)c1nc2cc(C)cc(C)c2s1,0.9%,-15%,-2,-22%,1,13%,-0.5
Cc1ccn2cc(CNS(=O)(=O)c3ccc(Cl)s3)nc2c1,-5.6%,4%,-3,0%,x,-5%,4.2
CC(=O)Nc1ccc(S(=O)(=O)N2CCN(Cc3cccnc3)CC2)cc1,-0.4%,u,11,11%,7,3%,-2.6
CCC(C)(c1ccc(C(=O)OC)s1)c1ccc(C(=O)OC)s1,0.1%,u,24,-22%,u,-15%,-0.1
COC(=O)Nc1ccc(S(=O)(=O)N(C)CC(F)(F)C(F)F)cc1,1.3%,4%,3,-4%,-19,-1%,-0.8
CCC(C(=O)N1CCOCC1)n1c(C(=O)OC)cc2occc21 (configuration not stated),-2.0%,-20%,3,8%,20,5%,-0.4
O=C(COC(=O)CCCOc1ccccc1)NNC(=O)c1ccc([N+](=O)[O-])cc1,0.5%,27%,0,-7%,7,12%,x
CCC(C)(C)NC(=O)/C=C/c1ccc(OC)c(S(=O)(=O)N2CCOCC2)c1,-1.6%,4%,9,1%,12,11%,-1.7
CC1CCCC(NC(=O)COC(=O)c2ccc(S(=O)(=O)N3CCOCC3)cc2)C1C (configuration not stated),1.0%,7%,-1,-6%,1,-14%,0.4
O=C(Cc1csc(Nc2nc(=S)[nH]c3ccccc23)n1)NCc1ccccc1Cl,-2.6%,-8%,1,-10%,x,4%,6.6
CCOCCOC(=O)c1ccc(NC(=O)c2cc(OC)c(OC)c(OC)c2Br)cc1,-3.4%,4%,6,27%[15.4 µM],10,-18%,2.4
CCOc1ccc(C(C)=O)cc1CN1C(=O)NC2(CCCCC2C)C1=O (configuration not stated),1.8%,18%,-1,-12%,-14,6%,0.7
CCCNC(=O)N(C)C[C@@H]1Oc2ncc(Br)cc2C(=O)N([C@H](C)CO)C[C@@H]1C,-5.6%,x,-16,-7%,x,x,x
O=C(CSc1ncccn1)Nc1cccc2ccccc12,x,16%,10,-12%,-4,2%,-5.2
Cn1nnnc1-c1cc(Cl)cc(Cl)c1,x,8%,x,-11%[15.4 µM],10,7%,-2.6
O=c1[nH]c(C2CCN(S(=O)(=O)c3ccc(F)cc3)CC2)nc2c1nnn2Cc1ccc2c(c1)OCCO2,2.0%,-12%,x,-18%,-8,0%,x
COc1cc(C(=O)NC(=S)NC(C)C)cc(OC)c1OC,0.5%,7%,-14,5%,-3,-5%,2.2
Cc1ccc(N=C2NC(=O)CS2)cc1C,-0.7%,15%,x,-28%,u,1%,3.2
CCc1ccc([C@@H]2CC=C(C(=O)O)[C@H](c3ccc(F)cc3)N2S(=O)(=O)c2ccc(C)cc2)cc1,1.0%,x,1,23%,6,-18%,x
C#CCOCCOCCOCCNc1nc(N2CCN(C(=O)Cn3cc(CCCCN)nn3)CC2)nc(N2CCN(C(=O)[C@H](C)n3cc(CCCN=C(N)N)nn3)CC2)n1,x,4%,x,x,13,x,6.5
CCOC(=O)c1c(C)[nH]c(C(=O)Nc2ccc(NC(C)=O)cc2)c1C,-1.0%,12%,x,u,-5,-5%,-0.2
Cc1ccc2c(c1)N(CC(=O)NCCCN1CCCC1)C(=O)CO2,x,7%,5,-53%[inhibitor],4,10%,2.9
COc1ccc(C2=NS(=O)(=O)N(C)C(C(=O)NC3CCCCC3)=C2)cc1OC,-0.7%,14%,2,-8%,13,-2%,3.1
CC(=O)c1cn(CC(=O)NCc2ccc3c(c2)OCO3)c2ccccc12,-1.4%,-7%,-1,18%,10,3%,-0.7
CCC(=O)Nc1ccc2c(c1)ncn2-c1ccc(C)cc1,-3.6%,16%,-2,14%[15.4 µM],3,-12%,-0.1
CCOc1ccccc1C(=O)N1CCN(c2cccc(Cl)c2)CC1,-2.8%,7%,-6,35%,-18,8%,3.2
COc1cc2c(cc1OC)-c1n[nH]c(=S)n1C(C)(C)C2,x,-11%,-11,7%[15.4 µM],-4,x,0.5
Cc1ccc(-c2csc3ncnc(-n4nnc5ccccc54)c23)cc1,-5.5%,10%,4,-13%,2,-4%,-1.2
Cc1ccc(C)c(OCC(=O)Nc2ccc(S(=O)(=O)N3CCN(C)CC3)cc2)c1,0.6%,5%,-3,-2%,8,-7%,2.4
O=C(Cc1cccs1)NCc1cccc(Cl)c1,0.6%,13%,3,6%,-18,11%,-1.8

Source: PubChem BioAssay
